Calb biofilm kill: mixture kills Candida albicans biofilm cells | C. albicans biofilm persisters + clotrimazole, fluorescence viability; primary screen in compound mixtures of four per well | inhibition, % at 7.6 µM | 120,000 tested, 0.02% active;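 active means inhibition above 30.3% in the primary screen of four-compound pools, then above 30% when the compound was retested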;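 further: compounds exposed to preformed 24 h biofilms for 48 h; the number belongs to the whole pool; some results filed as inactive read as strong as hits; inactives centre near 12; 0% = biofilm with clotrimazole alone and 100% = kill control; retested singly at about 60 µM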
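System: C. albicans CAF4-2 wild-type biofilms; Medium: RPMI/MOPS medium, pH 7.0; Reagent: Clotrimazole, 50 µg/mL; Times: biofilm formation 24 h, compound exposure 48 h, 37 °C; Detection: 2-h Alamar Blue fluorescence, 535/590 nm excitation/emission; Evaluation: percent inhibition of biofilm viability.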
Starred values were filed as active, the others as inactive. Only part of the results is shown; the hit share may differ from the screen's.

SMILES	Calb biofilm kill
COc1ccc(-c2csc(NC(=O)C3CC(=O)N(c4ccc5c(c4)OCCO5)C3)n2)cc1 (stereo not drawn)	7
Cc1nc(N2CCOCC2)nc(OCCN(C)C)c1[N+](=O)[O-]	-5
CN(C)S(=O)(=O)N(CC(=O)N1CCN(c2ccccc2F)CC1)c1ccccc1	8
Cc1ccc(-c2nc3ncccc3o2)cc1NC(=O)c1ccccc1	20
Cc1c([N+](=O)[O-])c2ccc(O)cc2n1-c1ccccc1	13
CC(C)Nc1nc(Oc2ccc(=O)n(-c3ccccc3)n2)nc(N(C)C)n1	9
Cc1c(NC(=O)CN2C(=O)C(=O)N(Cc3ccccc3)C2=O)c(=O)n(-c2ccccc2)n1C	16
COc1ccc(C(C)=O)cc1COC(=O)CNC(=O)c1cc(C)cc(C)c1	11
COc1ccc(NC(=O)C(=S)N2CCCC2)cc1	4
C/C(=N\NC(=O)c1ccc(CSc2nc(C)cc(C)n2)cc1)C1CCCCC1	14
O=C(NCc1ccccc1)C1CC(=O)N(C2CCCCCC2)C1 (stereo not drawn)	18
O=C(c1ccc(F)cc1)N1CCC(n2nnc3ccccc32)CC1	15
O=C(COC(=O)COc1cccc(F)c1)NCCC1=CCCCC1	15
CCCOC(=O)c1ccc(NC(=O)C(=O)NCC2CCCO2)cc1 (stereo not drawn)	8
CSc1nnc(-c2cc(C)on2)n1-c1ccccc1	13
Cc1nn(C)c(C(=O)N2CCc3ccccc32)c1Br	16
O=C(Nc1ccccc1O)c1ccc(NS(=O)(=O)c2cccc3cccnc23)cc1	16
CNc1nc(Nc2ccc(C)c(Cl)c2)nc(N)c1[N+](=O)[O-]	14
CCCCC(=O)NCc1ccc(Cl)cc1	9
CC(=O)NNC(=O)CCn1c2c(c3ccccc31)CCCC2	15
COc1ccc(C2NC(=O)C(C#N)=C(S)N2c2ccc(C)cc2)cc1OC (stereo not drawn)	6
COc1cccc(C2c3[nH]c4ccccc4c3CCN2C(=O)Cn2cncn2)c1OC (stereo not drawn)	7
Cc1cc(C)c2c(N)c(C(=O)C(C)(C)C)sc2n1	4
O=C(CCc1n[nH]c(=O)[nH]c1=O)Nc1cccc([N+](=O)[O-])c1	15
O=C(CSc1ncnc2scc(-c3ccccc3)c12)NC1CCS(=O)(=O)C1 (stereo not drawn)	13
Cc1nn(Cc2ccc(Cl)cc2)c(Cl)c1/C=N/NC(=O)CNc1ccccc1F	23
COC(=O)C1=CN(C2CCCCC2)C=C(C(=O)OC)C1c1ccc2c(c1)OCO2	10
COc1ccc(/C=C/CN2CCCC(CO)(Cc3cccc(Cl)c3)C2)cc1 (stereo not drawn)	11
COC(=O)CCC(=O)NNC(=O)Cc1ccccc1	18
Clc1ccc(CN2CCC(Cc3ccccc3)CC2)cc1	17
CCCCC(=O)NC(NC(=O)CCCC)c1ccc(OCCC)c(OC)c1	14
O=C(COC(=O)c1cccc(S(=O)(=O)N2CCc3ccccc32)c1)Nc1ncc(Cl)cc1Cl	15
O=C(CN1CCOCC1)NN=C1CCCCCCCCCCC1	4
O=C(Nc1ccccc1Cl)N1CCCN(c2nc(-c3ccccc3)ns2)CC1	25
CCCCc1ccc(NC(=S)NCc2cccc(OC)c2)cc1	13
COc1cccc(C2=NN(C(=O)CCCC(=O)O)C(c3cccs3)C2)c1 (stereo not drawn)	18
COc1ccccc1C(=O)NC(CCSC)C(=O)NC1CCCCCC1 (stereo not drawn)	5
CCN(CC(=O)NCc1cccs1)S(=O)(=O)c1ccc([N+](=O)[O-])cc1	8
CCn1c(NCc2ccco2)nc2c1c(=O)n(C)c(=O)n2C	14
COc1ccc(CCNc2oc(-c3cccc4ccccc34)nc2P(=O)(OC)OC)cc1OC	3
COc1cc(NC(=S)NCc2ccc(S(N)(=O)=O)cc2)c(OC)cc1Cl	9
NS(=O)(=O)c1cccc(NC(=O)CSc2nn(-c3ccccc3)c(=S)s2)c1	17
Cc1ccc(C2=C/C(=C/c3cccnc3)C(=O)O2)c(C)c1	11
c1ccc2c(Nc3nc(-c4ccncc4)nc4ccccc34)cccc2c1	10
S=C(NC1CCCCC1)N1CCN(c2ccccn2)CC1	7
CCOc1cc(/C=C2/NC(=O)NC2=O)cc(Br)c1OCc1ccc(C(=O)O)cc1	12
CCOc1ccc(N/C(SCc2cccc([N+](=O)[O-])c2)=C(/C#N)C(N)=O)cc1	20
COc1cc(/C=N/O)c(Br)cc1OCC(=O)Nc1ccccc1C	0
N#Cc1ccc(N2CCOCC2)nc1	22
O=C(O)/C=C/C(=O)N1CCN(C(c2ccccc2)c2ccccc2)CC1	6
CNC(=O)COC(=O)c1ccccc1C(=O)c1ccc(Cl)c([N+](=O)[O-])c1	2
COc1cc2c(cc1OC)C(Cc1ccc(O)cc1)NCC2 (stereo not drawn)	12
O=C(O)c1ccc2c3c(cccc13)C(=O)N(c1ccccc1)C2=O	3
CCC(C)(C)n1nnnc1CN1CCN(C(c2ccccc2)c2ccccc2)CC1	-7
C=CCNC(=S)NCc1ccc(CNC(=S)NCC=C)cc1	15
O=P(c1ccccc1)(c1ccccc1)c1nc(-c2ccccc2)oc1N1CCOCC1	18
Cc1ccc(-c2nn(-c3ccccc3)cc2/C=C/C(=O)O)o1	14
CN1CCN(CC(=O)Nc2ccccc2[N+](=O)[O-])CC1	5
COc1ccc(CCNC(=O)CCn2c(SCC(=O)N3CCCC3)nc3ccccc3c2=O)cc1OC	12
CC(C)c1nc(C(=O)N2CCCC(CCC(=O)N(C)CCc3ccccn3)C2)cs1 (stereo not drawn)	-6
(continued)
SMILES	Calb biofilm kill
CC(C)CNC(=O)COc1ccc(Sc2ccc(OCC(=O)NCC(C)C)cc2)cc1	4
CC1(c2ccccc2)CC(C)(C)N2C(=O)Cc3cccc1c32 (stereo not drawn)	4
O=[N+]([O-])c1ccc(-c2n(-c3ccccn3)c3ccccc3[n+]2-c2ccccn2)cc1	18
COc1ccc(CCN=C(N)C(C)c2ccccc2)cc1OC (stereo not drawn)	27
O=[N+]([O-])c1ccccc1NCc1ccccc1Cl	-1
O=C(Nc1ccccc1)c1cc2ccccc2o1	19
COCCNC(=S)c1ccc(Br)cc1	3
Cc1cc(C(=O)N/N=C/c2cc(Br)cc(Br)c2OC(=O)c2cccc(F)c2)n[nH]1	13
Cc1cc(CSc2ccccc2)ccc1NC(=O)c1ccc(CN2CCOCC2)cc1	-15
CCOC(=O)c1ccc(NC(=S)NCCC2=CCCCC2)cc1	-4
CCCCCCCCCCCCCCCC[n+]1cccc2ccccc21	4
O=[N+]([O-])c1cccnc1N1CCN(c2ccc(F)cc2)CC1	8
Cc1c(NC(=O)c2ccc(S(=O)(=O)N3CC(C)OC(C)C3)cc2)c(=O)n(-c2ccccc2)n1C (stereo not drawn)	4
Cc1ccc(NC(=S)Nc2c(C)n(C)n(-c3ccccc3)c2=O)cc1Cl	6
COc1ccc(C(=O)N2CC3(C)C4CCC3(C)C2(C#N)C4)cc1OC (stereo not drawn)	19
O=C1CC2c3ccccc3C1C1C(=O)N(Cc3ccccc3)C(=O)C21 (stereo not drawn)	8
COC(=O)N/N=C(\C)c1ccc(-n2ccnc2)cc1	10
Cc1cc(C)n(CCc2nc(-c3ccc(F)cc3)cs2)n1	11
NS(=O)(=O)c1cccc(-n2cnnn2)c1	24
O=C(C[n+]1ccc(/C=N/O)cc1)NCc1ccccc1	11

Molecules above that contain an aryl methoxy group (17):
SMILES	Calb biofilm kill
COc1ccc(-c2csc(NC(=O)C3CC(=O)N(c4ccc5c(c4)OCCO5)C3)n2)cc1 (stereo not drawn)	7
COc1ccc(C(C)=O)cc1COC(=O)CNC(=O)c1cc(C)cc(C)c1	11
COc1ccc(NC(=O)C(=S)N2CCCC2)cc1	4
COc1ccc(C2NC(=O)C(C#N)=C(S)N2c2ccc(C)cc2)cc1OC (stereo not drawn)	6
COc1cccc(C2c3[nH]c4ccccc4c3CCN2C(=O)Cn2cncn2)c1OC (stereo not drawn)	7
COc1ccc(/C=C/CN2CCCC(CO)(Cc3cccc(Cl)c3)C2)cc1 (stereo not drawn)	11
CCCCC(=O)NC(NC(=O)CCCC)c1ccc(OCCC)c(OC)c1	14
CCCCc1ccc(NC(=S)NCc2cccc(OC)c2)cc1	13
COc1cccc(C2=NN(C(=O)CCCC(=O)O)C(c3cccs3)C2)c1 (stereo not drawn)	18
COc1ccccc1C(=O)NC(CCSC)C(=O)NC1CCCCCC1 (stereo not drawn)	5
COc1ccc(CCNc2oc(-c3cccc4ccccc34)nc2P(=O)(OC)OC)cc1OC	3
COc1cc(NC(=S)NCc2ccc(S(N)(=O)=O)cc2)c(OC)cc1Cl	9
COc1cc(/C=N/O)c(Br)cc1OCC(=O)Nc1ccccc1C	0
COc1cc2c(cc1OC)C(Cc1ccc(O)cc1)NCC2 (stereo not drawn)	12
COc1ccc(CCNC(=O)CCn2c(SCC(=O)N3CCCC3)nc3ccccc3c2=O)cc1OC	12
COc1ccc(CCN=C(N)C(C)c2ccccc2)cc1OC (stereo not drawn)	27
COc1ccc(C(=O)N2CC3(C)C4CCC3(C)C2(C#N)C4)cc1OC (stereo not drawn)	19

Continuation.
SMILES	Calb biofilm kill
COc1cccc(/C=N/NC(=O)CNC(=O)c2ccc(S(=O)(=O)N3CCOCC3)cc2)c1OC	16
C=CCn1c(SCc2nc3sc4c(c3c(=O)[nH]2)CCCC4)nc2ccccc2c1=O	8
O=C(Nc1ccc(F)cc1F)N1CCN(CCc2ccccc2)CC1	27
CC(C)c1ccc2[nH]c(O)c(N=NC(=O)c3cccc(S(=O)(=O)N4CCCCC4)c3)c2c1	8
CN1CCN(C2=NC(=O)/C(=C/c3ccccc3OS(=O)(=O)c3ccccc3)S2)CC1	15
COc1ccc(/C=C2\CCn3c2nc2cc(C(=O)O)ccc2c3=O)cc1OC	16
O=C(N/N=C/c1cccc(NC(=O)c2ccc(Cl)cc2)c1)c1ccc(O)cc1	15
S=C(Nc1ccc2nsnc2c1)N1CCCC1	15
CNC(=S)NNS(=O)(=O)c1ccc(OC)cc1OC	7
NC(=O)c1ccc(NC(=O)COC(=O)C(Cc2ccccc2)NC(=O)c2ccccc2)cc1 (stereo not drawn)	15
COc1ccc(/C=N/NC(=O)c2ccncc2)cc1CN1CCN(c2ccc(F)cc2)CC1	24
O=S(=O)(c1ccccc1)c1ccc(C(F)(F)F)cn1	-11
COc1ccccc1NC(=O)C(Sc1ccccc1)c1ccccc1 (stereo not drawn)	9
CC1CCN(C(=O)c2[nH]cnc2C(=O)N[C@@H](C)C(=O)OC(C)(C)C)CC1	15
CC/C(=N\NC(=S)NC(C)C)c1ccc(OC(F)F)cc1	7
Cc1ccc(Nc2ccccc2)cc1	17
CN1C(=S)N(c2cccnc2)C(=O)/C1=C\c1ccc(C(C)(C)C)cc1	7
CCCn1c(SCC(=O)c2[nH]c(C)c(C(C)=O)c2C)n[nH]c1=O	27
CC(C)(C)NC(=O)CSc1nc(O)cc(=O)[nH]1	11
CCOC(=O)c1c(NC(=O)C(Sc2ccccc2)c2ccccc2)sc(C(=O)N(C)C)c1C (stereo not drawn)	13
CSc1cc(N2CCOCC2)nc(-c2ccccc2Cl)n1	5
COc1ccccc1CNC(=O)CSc1nc(C)cs1	12
CCOC(=O)C1(CCCc2ccccc2)CCN(CC(O)CO)CC1 (stereo not drawn)	2
COc1cccc(OCCSc2nc3ccccc3c(=O)[nH]2)c1	2
CCOC(=O)c1[nH]c2ccc(OC)cc2c1NC(=S)N1CCN(C(=O)OCC)CC1	-4
CN(C)N=Nc1nc2c(c(=O)n(C)c(=O)n2C)n1CC1CO1 (stereo not drawn)	20
O=C(NC1CCCC1)C(NS(=O)(=O)c1ccc(Br)s1)c1ccccc1 (stereo not drawn)	6
CC(=O)Nc1cccc(-c2cn3ccc(C)cc3n2)c1	8
O=C(NCCN1CCOCC1)C1CCC(CNS(=O)(=O)c2ccccc2)CC1 (stereo not drawn)	1
CN(C)C(CNC(=S)Nc1ccc(Cl)cc1)c1cccnc1 (stereo not drawn)	2
CCn1cc(C(=O)NC(C)C23CC4CC(CC(C4)C2)C3)cn1 (stereo not drawn)	7
O=C(CSc1nc2ccccc2c(=O)n1CCCN1CCOCC1)NC12CC3CC(CC(C3)C1)C2	11
COc1ccc(CN(CC2CCC(C(=O)O)CC2)C(=S)Nc2ccc(C)c(Cl)c2)cc1 (stereo not drawn)	17
C=CCn1c(C)cc(C(=O)COC(=O)CNC(=O)c2ccccc2)c1C	10
Cc1c(Cl)cccc1NC(=O)CN1CCN(CCN=CC2=C(O)CC(c3ccccc3)CC2=O)CC1 (stereo not drawn)	8
O=C(NNc1c(Cl)cccc1Cl)c1ccno1	27
COc1ccc(N2C(=O)CC(C3CCCO3)C2=O)cc1 (stereo not drawn)	-3
CCOC(=O)N1C=CC(C)=C[C@@H]2[C@@H](N3C(=O)c4ccccc4C3=O)C(=O)N21	11
O=C1NC(=S)N/C1=C\c1cccnc1	23
CC(N)c1ccc(Cl)cc1Cl (stereo not drawn)	14
CCN(C(=O)CSc1nnc(Nc2cccc(C)c2C)s1)C1CCS(=O)(=O)C1 (stereo not drawn)	9
CN(C)C(=O)c1nc2ccc(Cl)cn2c1CN1CCCC(OCc2ccccc2)C1 (stereo not drawn)	3
Nc1c2c(nc3ccc(Br)cc13)N(Cc1ccccc1)CC2	10
Cc1ccc(N=Cc2cc(Cc3ccccc3Cl)cc([N+](=O)[O-])c2O)c(O)c1	12
NC(=O)c1ccccc1NC(=O)Nc1ccc(F)c(Cl)c1	12
Cc1ccc(CSc2nnc(C)c(=O)n2N)cc1	2
Nc1cc[n+](CC(=O)c2ccc3c(c2)OCCO3)cc1	-8
COc1ccc(NC(=O)c2cc3c(=O)n4ccccc4nc3n2C)c(OC)c1	14
CC1(C)CC2(C)Nc3ccccc3N2C(=S)N1 (stereo not drawn)	20
O=C(CCN1C(=O)c2ccccc2C1=O)Nc1cccnc1	12
CCOC(=O)C1CCCN(C(=O)c2cn(C)c(=O)c3cc(OC)c(OC)cc23)C1 (stereo not drawn)	14
